Compound activity from PubChem.
Arbovirus anti: arbovirus infection inhibition. arbovirus infection cell-based antiviral screen. hit rate 0.37% among 200,000. inhibition, % at 10 µM;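 active means inhibition from about 30%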;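 further: bluetongue infection of BSR cells; cell survival read as ATP light after 72 h; 0% = infected wells without compound and 100% = uninfected wells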
Mtb bLac sens: beta-lactam sensitization of Mtb H37Rv; M. tuberculosis H37Rv growth with meropenem, percent inhibition; hits of this screen are not shown here; inhibition, % at 25 µM; hit rate 0.27% among 330,000; AID 434955;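 active means about 74% or more and at least 40 points above the plate without the antibiotic, then above 30% in a dose series; inconclusive means first-round hits that could not be retested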;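 further: growth measured after seven days incubation then overnight dye step; 0% = bacteria only wells and 100% = bacteria with antibiotic; twin plates without the antibiotic show which effects depend on it; some results filed as inactive read as strong as hits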
Mtb H37Rv: M. tuberculosis H37Rv growth inhibitors, H37Rv strain (AID 1626) | M. tuberculosis H37Rv growth inhibition; higher % means a stronger effect | one-dose inhibition, % at 10 µM; IC50 in µM for titrated hits | hit rate 0.95% among 220,000;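 active means confirmed in a dose series; inconclusive means inhibition above 80% but not taken into the dose series; inactive means below 80% or under 30% at every dose of the series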;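 further: bacteria incubated seven days before Alamar blue readout; 0% = bacteria only wells and 100% = bacteria with antibiotic wells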
YopH inh: blocks Yersinia enterocolitica YopH tyrosine phosphatase; fluorescence Ex485/Em525; inhibition, %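 (about 10 µM by stock and volumes)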; hit rate 0.16% among 140,000;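 active means inhibition of 50% or more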;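 further: controls were vehicle for no effect and minimum signal wells for full effect; inactives centre near -20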
RecA intein inh: inhibitors of M. tuberculosis RecA intein splicing; P9WHJ3; cell-free RecA intein splicing, fluorescence; inhibition, %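 (about 9 µM by stock and volumes)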; hit rate 0.75% among 290,000; AID 2221; in the data active means inhibition above about 30%; inconclusive means no clear call, values can overlap the other calls;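 further: 0% = vehicle wells and 100% = reference inhibitor control wells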
Target sequence (P9WHJ3 whole entry, looked up): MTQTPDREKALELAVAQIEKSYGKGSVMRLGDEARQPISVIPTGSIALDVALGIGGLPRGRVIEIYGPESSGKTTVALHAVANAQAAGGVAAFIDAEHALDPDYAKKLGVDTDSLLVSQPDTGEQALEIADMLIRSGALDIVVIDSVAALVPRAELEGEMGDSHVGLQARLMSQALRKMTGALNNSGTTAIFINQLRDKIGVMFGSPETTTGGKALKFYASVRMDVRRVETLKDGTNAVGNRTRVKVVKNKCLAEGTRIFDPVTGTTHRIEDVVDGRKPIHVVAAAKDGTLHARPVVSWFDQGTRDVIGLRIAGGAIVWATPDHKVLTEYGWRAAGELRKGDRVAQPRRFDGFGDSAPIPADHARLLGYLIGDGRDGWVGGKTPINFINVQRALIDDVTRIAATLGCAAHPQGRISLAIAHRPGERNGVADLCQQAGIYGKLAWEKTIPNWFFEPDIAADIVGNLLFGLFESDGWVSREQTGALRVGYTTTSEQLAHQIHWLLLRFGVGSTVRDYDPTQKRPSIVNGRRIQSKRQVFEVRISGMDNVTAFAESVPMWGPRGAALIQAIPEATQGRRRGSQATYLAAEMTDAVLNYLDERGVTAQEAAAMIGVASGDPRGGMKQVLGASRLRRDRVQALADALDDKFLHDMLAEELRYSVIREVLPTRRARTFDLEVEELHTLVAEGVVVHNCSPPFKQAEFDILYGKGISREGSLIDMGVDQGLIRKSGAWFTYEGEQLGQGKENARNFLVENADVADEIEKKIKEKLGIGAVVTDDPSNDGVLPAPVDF
Arbovirus anti repeat: second read-out of Arbovirus anti, no call of its own (marks repeat the call); inhibition, %; measured here: 10K subset replicate screen; many hits read low in the repeat;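 first of two repeat runs on a subset; 0% = infected and 100% = uninfected wells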
* hit, by the source's call; ? = inconclusive; · = no result given. An excerpt, so the mix of outcomes need not match the whole.

SMILES | Arbovirus anti | Mtb bLac sens | Mtb H37Rv | YopH inh | RecA intein inh | others
CC(C)(C)NC(=O)NC(=O)CSc1nnc(COc2ccccc2Cl)o1 | -0.5 | 19.3 | 11.6% | -3.0 | -2.9
Cc1nnc(Nc2ccc3c(c2)ncn3C)c2ccccc12 | -3.5 | -2.5 | -11.6% | -51.5 | 2.8
Cc1ccc(C(C)C)c(OCC(=O)NNC(=O)Nc2ccccc2)c1 | · | -12.3 | · | · | 1.8
C=CCN1CCC2(C)c3cc(O)ccc3CC1C2C (stereo not drawn) | · | 5.6 | -6.0% | · | -1.7
Cc1ccc(-n2c(-c3cnccn3)n[nH]c2=S)c(Br)c1 | -5.7 | -8.8 | -1.3% | · | -1.0
CCN1CCN(c2ncnc3c2cnn3-c2ccc(C)cc2C)CC1 | 6.9 | 8.7 | 5.8% | · | 0.5 | Arbovirus anti repeat=2.6
Cn1c(NC(=O)C2CCCO2)cc(=O)n(C)c1=O (stereo not drawn) | -1.4 | 5.5 | -1.0% | -18.2 | 0.7 | Arbovirus anti repeat=1.5
Cn1ncc(Cl)c1C(=O)N1CCN(C(=O)c2ccco2)CC1 | 3.1 | · | 3.2% | · | -1.2
O=C(OCC(=O)c1c[nH]c2ccccc12)c1ccc([N+](=O)[O-])s1 | 1.6 | 99.9 | 1.21µM* | · | -5.8
O=C(c1ccc(F)cc1)c1c[nH]c(C(=O)NCCCN2CCOCC2)c1 | -3.3 | 5.7 | 1.1% | 3.6 | 2.8
CS(=O)(=O)c1nncn1-c1ccccc1 | 0.9 | -4.3 | -1.1% | 12.8 | -2.5
N#C/C(=C/Nc1ccccc1)c1ccsc1 | -8.3 | 4.4 | 6.9% | -15.5 | 3.6
COc1cc(C)nc(Nc2nc(C)c(C(C)=O)s2)n1 | -10.2 | 10.9 | -2.6% | -46.3 | 3.4
CCCC(O)(CCC)C(=O)NN(C(=O)CCl)c1ccccc1 | -18.4 | 89.1 | 9.5% | -41.4 | ·
C=CCC(CC=C)(C(N)=O)c1ccccc1 | 2.9 | -0.6 | 0.1% | · | -4.3
COC(=O)c1[nH]c2ccc(C)cc2c1NC(=O)Oc1ccccc1 | 0.6 | -3.3 | 0.9% | -8.4 | -0.8
Cc1ccc(NC(=O)c2cc(-c3cccs3)on2)cc1C | 3.0 | 24.0 | 31.1% | · | 4.1
CN(CC(=O)Nc1cccc(F)c1)C(=O)c1cccnc1Sc1ccccc1 | · | -7.5 | · | · | -0.1
Cc1nc(C(=O)Nc2ccc(Cl)cc2)nn1-c1ccc([N+](=O)[O-])cc1 | -0.5 | -2.8 | 51.7% | -38.8 | 0.1
COc1cc(NC(=O)c2cccc([N+](=O)[O-])c2)ccc1NC(=O)c1cc2ccccc2o1 | · | 6.7 | · | · | 0.1
Cc1oc(-c2ccccc2)cc1C(=O)NCc1ccncc1 | · | -9.8 | · | · | 1.7
COc1ccc2c(c1)nc(NCCCO)n2Cc1ccccc1 | · | 2.1 | -10.7% | · | -15.1
CCOc1ccccc1N(CC(=O)Nc1cccc(OC)c1)S(=O)(=O)c1ccccc1 | · | -0.7 | · | · | 7.1
CC(=O)N1N=C2C3CCN(CC3)C2C1c1ccc(Br)cc1 (stereo not drawn) | · | 1.1 | · | · | -2.2

Reprinted from the part before: four entries, followed by the next part.
SMILES | Arbovirus anti | Mtb bLac sens | Mtb H37Rv | YopH inh | RecA intein inh | others
Cc1oc(-c2ccccc2)cc1C(=O)NCc1ccncc1 | · | -9.8 | · | · | 1.7
COc1ccc2c(c1)nc(NCCCO)n2Cc1ccccc1 | · | 2.1 | -10.7% | · | -15.1
CCOc1ccccc1N(CC(=O)Nc1cccc(OC)c1)S(=O)(=O)c1ccccc1 | · | -0.7 | · | · | 7.1
CC(=O)N1N=C2C3CCN(CC3)C2C1c1ccc(Br)cc1 (stereo not drawn) | · | 1.1 | · | · | -2.2
COC(=O)C(O)(c1ccc(NC(=O)c2cccs2)cc1)C(F)(F)F (stereo not drawn) | · | 1.9 | -2.4% | · | -0.5
COC(=O)c1ccc(NC(=O)COC(=O)c2nc3nccc(C)n3n2)cc1 | 21.2 | 2.8 | -10.6% | · | 1.1
CC1Cc2ccccc2N1S(=O)(=O)c1cccc(C(=O)OCC(=O)NCc2ccco2)c1 (stereo not drawn) | · | 1.0 | -1.1% | · | 7.9
COc1ccc(N(CC(=O)NCc2ccc3c(c2)OCO3)C(=O)CCC(=O)Nc2ccccn2)cc1 | 5.0 | 9.4 | 1.2% | · | -1.3
COc1ccc(C/C(N)=N/O)cc1 | -0.4 | 1.8 | 1.8% | -28.9 | -0.5
CC(OC(=O)Cn1[nH]c(=O)c2ccccc2c1=O)C(=O)c1ccccc1 (stereo not drawn) | · | -7.9 | · | · | -1.2
Cc1cc(F)ccc1S(=O)(=O)Nc1ccccc1C(=O)Nc1ncn[nH]1 | -3.9 | 6.7 | -13.4% | -4.4 | 0.2
Cc1ccccc1CN1C2=NCCN2c2ccccc21 | -0.1 | -4.4 | -9.3% | -19.7 | -3.7
CC(C)C[C@H](NC(=O)[C@H]1N2C(=O)c3ccccc3C2SC1(C)C)C(=O)N[C@@H](Cc1ccccc1)C(=O)O (stereo partly drawn) | · | -6.8 | · | · | 1.2
OCCNc1nc(-c2cccnc2)nc2ccccc12 | 9.2 | 5.1 | -12.3% | -44.6 | 2.3
CC(Cc1ccccn1)NC(=O)CCc1nnc(C2CCCCC2)o1 (stereo not drawn) | 12.3 | -1.9 | 5.9% | · | 0.3
O=c1cc(-c2ccccc2)cc(-c2ccccc2)n1CCCO | · | -7.8 | · | · | -0.1
COC(=O)C12CC3CC(C1)CC(n1cnc(Cl)n1)(C3)C2 | 11.7 | -6.3 | -8.5% | -16.0 | -3.7
O=C(CSc1nnc(Cc2cccs2)n1Cc1ccco1)Nc1cccc(Cl)c1 | 1.8 | 12.0 | -2.4% | -18.7 | 1.9
CCN(CC)S(=O)(=O)c1cccc(-c2nnc(SCC(=O)NC3CCCCCC3)n2N)c1 | -1.2 | -2.9 | -15.9% | -15.5 | 0.3
Cc1c(O)nc(SCC(=O)Nc2cccc(C(F)(F)F)c2)n(-c2ccccc2)c1=O | · | -1.2 | · | · | 1.3
Cc1c(C)c2ccc(OCC(=O)Nc3ccccn3)c(C)c2oc1=O | · | 2.2 | · | · | -0.2
COC(=O)c1sc(NC(=O)COc2cccc3ccccc23)nc1C | -0.6 | 62.8 | 2.1% | -8.5 | -2.1
COc1ccc(C(=O)/C=C/c2ccc(C)cc2)c(OC(=O)c2ccc([N+](=O)[O-])cc2)c1 | 13.0 | 78.1 | -9.5% | -0.8 | 3.5
O=C(O)CCc1nn2c3ccccc3n(CCN3CCCCC3)c2nc1=O | 4.0 | 7.5 | -13.1% | 2.4 | -0.9
CCc1ccc(NS(=O)(=O)c2ccc3[nH]cc(C(=O)N4CCCCC4)c(=O)c3c2)cc1 | 10.6 | 67.2 | -3.8% | 28.6 | 3.6
CN(C)CCN(CC1CCCN(Cc2ccccc2F)C1)C(=O)Cc1ccccc1F (stereo not drawn) | · | -4.2 | · | · | 3.5
CCOc1ccc(N=C2NN=C(c3cc(C)n(CC4CCCO4)c3C)CS2)cc1 (stereo not drawn) | -2.0 | 55.7 | 94.9% | · | 2.1
O=C(Nc1nnc(S(=O)(=O)N2CCOCC2)s1)c1ccccc1F | · | 2.6 | · | · | -3.9
O=S(=O)(Nc1cccc2c1CCCC2)c1ccc(Cl)cc1 | -11.5 | -1.1 | -4.0% | -37.9 | 6.9
O=C(CCNC(=O)C1CCN(S(=O)(=O)c2ccc(F)cc2)CC1)NCc1cccnc1 | · | 5.4 | · | · | -2.7
O=C(CSc1nnc(-c2ccncc2)o1)NC1C2CC3CC(C2)CC1C3 (stereo not drawn) | 4.0 | -5.5 | 6.9% | -21.8 | -4.0
CCOCCn1c(CN2CCCCC2C)nc2c1c(=O)n(C)c(=O)n2C (stereo not drawn) | · | 1.9 | · | · | -2.5
CCCCCCCC(=O)N/N=C(\C)c1cccnc1 | 1.6 | 90.3 | 40.0% | -15.8 | 1.5
CCc1ccc(OCCOC(=O)Nc2ccccc2)cc1 | · | -3.5 | · | · | 2.1
CCOc1ccc2nc(Cl)c(/C=C/C(=O)c3ccco3)cc2c1 | -5.6 | 91.6 | 21.5% | -4.7 | 2.4
CC1CCCCC1NC(=O)COC(=O)/C=C/c1ccc2c(c1)OCO2 (stereo not drawn) | -7.6 | 1.0 | 4.6% | -17.9 | -3.0
COC(=O)c1ccc2c(c1)NC(=O)CS2 | 3.0 | 6.5 | -9.9% | · | 0.1
CCn1c(SCC(=O)c2c(N)n(C)c(=O)n(C)c2=O)nnc1-c1ccccc1 | -2.1 | -1.5 | 6.3% | -40.4 | -1.1
COc1cccc(CNC(=O)COc2cc3c(c4oc(=O)cc(C)c24)CCC(C)(C)O3)c1 | · | 4.5 | · | · | 0.6
O=C1CN(c2ccccc2)C(=S)N1C(=O)c1ccccc1 | · | 4.0 | · | · | 5.9

Brought forward from above: 2 entries, then new ones.
SMILES | Arbovirus anti | Mtb bLac sens | Mtb H37Rv | YopH inh | RecA intein inh | others
COc1cccc(CNC(=O)COc2cc3c(c4oc(=O)cc(C)c24)CCC(C)(C)O3)c1 | · | 4.5 | · | · | 0.6
O=C1CN(c2ccccc2)C(=S)N1C(=O)c1ccccc1 | · | 4.0 | · | · | 5.9
O=C(NCC(c1cccnc1)N1CCN(c2ccccc2F)CC1)c1ccccc1 (stereo not drawn) | -2.0 | -5.7 | 6.7% | -22.5 | -0.2 | Arbovirus anti repeat=-3.8
CCCCc1nc2ccccc2c(=O)n1NC(=O)c1c(O)c2ccccc2n(C)c1=O | 5.8 | 21.2 | -3.1% | · | -9.9
CN1CCC2(CC1)N=C(c1ccc(F)cc1)C(=S)N2C(=O)c1ccc(C(C)(C)C)cc1 | 4.6 | -9.8 | 3.5% | 11.8 | 1.2
COc1cccc(C(=O)Nc2nnc(S(=O)(=O)N3CCCC3)s2)c1 | · | 6.7 | · | · | -1.7
O=C(CCS(=O)(=O)c1ccc(Br)cc1)N1CCCCCC1 | · | 1.8 | · | · | -1.2
Cc1ccc(-c2nnc(NCCCO)c3ccccc23)cc1 | · | 6.2 | · | · | 3.2
CCOC(=O)c1cnc2c(C(F)(F)F)cccc2c1N1CCN(C)CC1 | · | -1.2 | · | · | 1.6
Cc1ccccc1NC(=O)CC1SC(=Nc2ccc(O)cc2)NC1=O (stereo not drawn) | · | -5.9 | 10.4% | · | 0.7
Cc1cc(C(C)(C)C)cc(S(=O)(=O)Nc2ccc(O)c(C(=O)O)c2)c1C | 17.2 | · | -8.8% | -26.5 | 0.0
CC(C)Cn1c(SCC(=O)NC2CCCc3ccccc32)nc(O)cc1=O (stereo not drawn) | 2.4 | -5.3 | 2.8% | -38.2 | 1.6 | Arbovirus anti repeat=-1.4
O=C(NNC(=O)c1ccccc1[N+](=O)[O-])Nc1ccc(Cl)cc1 | 6.1 | -2.5 | -4.6% | · | 1.9
COc1ccccc1N(CC(=O)Nc1cc(C)on1)S(=O)(=O)c1ccc(Cl)cc1 | 1.6 | -8.4 | -1.3% | -9.0 | -1.5
COc1ccc(NC(=O)N2CCCC(C(=O)NC(C)C)C2)cc1 (stereo not drawn) | -6.9 | -2.0 | -2.9% | -30.4 | 3.4
COCCN(C(=O)COC(=O)COc1ccc2c(c1)CCC2)c1c(N)n(Cc2ccccc2)c(=O)[nH]c1=O | · | 12.2 | · | · | -2.3
CC1CCCN(S(=O)(=O)c2cc3c4c(c2)CCN4C(=O)CC3)C1 (stereo not drawn) | · | -13.0 | · | · | 2.2
Cc1cc(Oc2nc3c(C)cccn3c(=O)c2/C=C(\C#N)S(=O)(=O)c2ccccc2)ccc1Cl | -33.4 | 15.2 | 10.5% | -29.9 | -2.4
CCNc1nc(NCC)nc(N/N=C/c2ccccc2)n1 | · | -0.1 | · | · | -3.7
Cc1c(-n2c(SCC(=O)N(C)C3CCS(=O)(=O)C3)nc3ccccc3c2=O)c(=O)n(-c2ccccc2)n1C (stereo not drawn) | 2.1 | -7.3 | -7.9% | · | -1.3
CCCCCCCC(=O)N/N=C/c1ccc([N+](=O)[O-])o1 | -30.1 | 99.4 | ? | 6.1 | 13.6
CC(=O)c1ccc(OCC(O)CN2CC(C)OC(C)C2)cc1 (stereo not drawn) | 0.6 | -4.6 | -1.9% | -22.1 | 0.4
O=C(O)/C=C\C(=O)Nc1ccccc1C(=O)NCc1ccccc1 | -0.7 | 0.8 | 0.6% | -29.7 | 0.2
Cc1ccc(S(=O)(=O)NCC(=O)OC(C(=O)c2ccccc2)c2ccccc2)cc1 (stereo not drawn) | 7.6 | -9.2 | -5.7% | -37.2 | -0.7
